# Source: PubChem (Fisher Drug Discovery Resource Center)
# NPYLR7 ag = agonists of mosquito NPYLR7 receptor, primary screen, cell-based, Aedes aegypti, calcium fluorescence, mosquito biting behavior; activation, % at 10 µM; Aedes aegypti neuropeptide Y-like receptor 7 (NPYLR7); HEK293T NPYLR7/Galpha15, GCaMP6s calcium fluorescence; 270,000 compounds, 0.15% hits; AID 1259423, 2018; in the data active means activation above about 40%;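 further: 0% = vehicle and 100% = reference agonist at the receptor; some compounds past the cut are filed as inactive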
# NPYLR7 ag max-min = second read-out of NPYLR7 ag, no call of its own (marks repeat the call); activation, %; measured here: Max-Min RFU normalised activation; some inactives read as strong as hits;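 span of the calcium signal over five minutes; 0% = vehicle and 100% = native peptide agonist; compound fluorescence can raise it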
# Active calls of the source: *; & = joins results of further samples. An excerpt (hit frequency here may not be typical).
SMILES,NPYLR7 ag,NPYLR7 ag max-min
O=C(CCN(CCCN1CCOCC1)c1nc(-c2ccccc2Cl)nc2ccccc12)NCc1ccco1,3,18
CCNC(=O)N1CCC(NC(=O)c2ccc(OCC)o2)CC1,8,8
CCCNC(=O)C1(C)CCCN(Cc2ccc(-c3ccccn3)cc2)C1 (stereo unspecified),0,1
O=C1/C(=C/c2ccc(-c3ccc(Br)cc3)o2)C=C(c2ccccc2)N1c1ccccc1Br,0,4
O=C(Nc1ccc(-n2nccn2)cc1)N(CCO)Cc1ccsc1,4,-9
Fc1ccc(C2=Nc3nnnn3C(c3cccc(Br)c3)C2)cc1 (stereo unspecified),24,15
O=C(CCc1cccc(Cl)c1)N1CCCC(Nc2ccccc2)C1 (stereo unspecified),2,-1
Cn1cnc([N+](=O)[O-])c1Sc1ncnc2nc[nH]c12,2&-8&-8&-2&4,-7&-12&-13&-2&-17
CN1C(=O)N(CCc2ccccc2)C(=O)C12CCN(Cc1ccc(-c3ccccc3)cc1)CC2,24,13
CC(=O)Nc1nc(CS(=O)(=O)Cc2ccc(C(=O)N3CCCC3)cc2)cs1,-4,-4
Cc1cc(C)c(C#N)c(Nc2ccc(-c3ccccc3)cc2)n1,-3,-10
CC1CN(C(=O)c2cc3cc(Cl)ccc3o2)CC(C)O1 (stereo unspecified),21,9
CC(C)(C)c1cc2nc(-c3cccc(C(F)(F)F)c3)cc(C(=O)O)n2n1,-2,4
COc1nc(OC)nc(-c2c[nH]c3ccc(C)cc23)n1,-3,-8
COCc1cc(C)nc(OCC(=O)N/N=C\c2cc(Br)cc(I)c2O)c1C#N,0,-3
CC(c1cccs1)N(C)C(=O)CCCS(N)(=O)=O (stereo unspecified),-2,2
Cc1cccc(OCCn2c(C3CC(=O)N(Cc4ccccc4)C3)nc3ccccc32)c1 (stereo unspecified),2,-2
CC(C)(C)c1ccc(C(=O)N(CCCN2C(=O)c3cccc4cccc(c34)C2=O)c2ccccc2)cc1,8,-1
O=[N+]([O-])C1C(=Nc2ccccc2)NN=C1c1nnco1 (stereo unspecified),-8,-7
O=C(CCc1ccco1)N1CCN(Cc2ccc(-c3noc(-c4cccnc4)n3)cc2)CC1,2,0
CCCCN(CC(=O)N(CCc1c[nH]c2ccccc12)Cc1ccc(OC)cc1)C(=O)Nc1ccccc1C,14,19
O=C1c2cccc3cccc(c23)C(=O)N1C1CCS(=O)(=O)C1 (stereo unspecified),-2,-2
CCc1cc(Oc2ccc(C(C)=O)cc2)nc(SCc2cccc([N+](=O)[O-])c2)n1,-3,9
COc1cccc(C(=O)N2CCSC23C(=O)N(Cc2cccc(C#N)c2)c2ccc(C)cc23)c1 (stereo unspecified),16,19
CC(C)N(Cc1ccc(OS(=O)(=O)c2ccc(F)cc2)cc1)C(=O)/C=C/c1ccc([N+](=O)[O-])cc1,36,32
COC(=O)CN1CCC(NC2CCCC(C)(C)C2)CC1 (stereo unspecified),-8,-10
CN(C)CC1(O)CCN(C(=O)C(C)(C)NC(=O)c2cccs2)C1 (stereo unspecified),-4,-2
Cc1ccc(C(=O)Nc2c(F)cccc2F)c(O)c1,-2,-1
COc1cc(C2Nc3ccccc3-c3nnc(SC)nc3O2)cc(I)c1O (stereo unspecified),-2,-3
CCCC(O)(CCC)c1ccc(CN(CCOC)Cc2ccc(F)cc2)o1,-9,-2
Cc1nc(N(CC#Cc2ccccc2)CC2CCCO2)c2nc(C)oc2n1 (stereo unspecified),-2,-5
COCCN(CC(=O)N1CCc2sccc2C1c1ccc(Cl)cc1)C(=O)c1ccc(Cl)cc1 (stereo unspecified),-5,8
COc1ccccc1OCCSc1nc2ccccc2n1CCOc1ccccc1OC,-13,-21
CCCc1cnc2[n+](c1)C(O)(c1cc(OC)ccc1OC)CS2 (stereo unspecified),5,4
Cc1ccnc(Nc2ccc(NCCNC(=O)Nc3cccc(Cl)c3C)nn2)c1,10,4
CCn1ncnc1C(C)Nc1nc(CCN)nc2ccccc12 (stereo unspecified),20,13
CCOc1ccc(CN2CCCC(C(=O)c3ccc(Cl)cc3C)C2)cc1CO (stereo unspecified),19,7
COc1ccc(C)cc1N1C(=O)C(c2c(C)[nH]n(-c3ccccc3)c2=O)=C(N2CCCCC2)C1=O,24,29
CC1(C(=O)NS(=O)(=O)c2ccccc2Cl)CCN1C(=O)C1(c2ccc(Cl)cc2)CC1 (stereo unspecified),5,2
O=S(=O)(Nc1ccc(F)cc1)c1cccc2nsnc12,5&5,3&4

# Molecules shown so far that have a carbonyl joined to an NH by a bond outside any ring, in the order listed:
SMILES,NPYLR7 ag,NPYLR7 ag max-min
O=C(CCN(CCCN1CCOCC1)c1nc(-c2ccccc2Cl)nc2ccccc12)NCc1ccco1,3,18
CCNC(=O)N1CCC(NC(=O)c2ccc(OCC)o2)CC1,8,8
CCCNC(=O)C1(C)CCCN(Cc2ccc(-c3ccccn3)cc2)C1 (stereo unspecified),0,1
O=C(Nc1ccc(-n2nccn2)cc1)N(CCO)Cc1ccsc1,4,-9
CC(=O)Nc1nc(CS(=O)(=O)Cc2ccc(C(=O)N3CCCC3)cc2)cs1,-4,-4
COCc1cc(C)nc(OCC(=O)N/N=C\c2cc(Br)cc(I)c2O)c1C#N,0,-3
CCCCN(CC(=O)N(CCc1c[nH]c2ccccc12)Cc1ccc(OC)cc1)C(=O)Nc1ccccc1C,14,19
CN(C)CC1(O)CCN(C(=O)C(C)(C)NC(=O)c2cccs2)C1 (stereo unspecified),-4,-2
Cc1ccc(C(=O)Nc2c(F)cccc2F)c(O)c1,-2,-1
Cc1ccnc(Nc2ccc(NCCNC(=O)Nc3cccc(Cl)c3C)nn2)c1,10,4
CC1(C(=O)NS(=O)(=O)c2ccccc2Cl)CCN1C(=O)C1(c2ccc(Cl)cc2)CC1 (stereo unspecified),5,2

# Next part.
SMILES,NPYLR7 ag,NPYLR7 ag max-min
CCCS(=O)(=O)NC1CCN(c2nc3ccccc3o2)CC1,-3,-3
Fc1ccc(-n2nnc3c(SCc4ccccc4F)ncnc32)cc1,0,21
N#Cc1cc2c(=O)c3ccccc3oc2nc1-c1cc2ccccc2o1,1,-2
COc1ccc(Cn2ccnc2CN(C(=O)NC(C)C)c2ccccc2)cc1,15,22
CCOC(=O)c1nc(CN(C)c2ccc(Br)cc2C)cs1,6,3
COCCn1cc(NC(=O)NC2(CO)CC(C)CC(C)(C)C2)cn1 (stereo unspecified),0,0
CN(C)c1ccc(NC(=O)c2ccco2)cc1CN(Cc1ccc(F)cc1)C(=O)Nc1cccc(F)c1,1,10
CC1=C(C(=O)OC(C)C)C(c2cccnc2)C2=C(CCCC2=O)N1 (stereo unspecified),-1,-8
CCOC(=O)Cn1c(=O)c2c(nc3n(C(C)CC)c(C)c(C)n23)n(C)c1=O (stereo unspecified),4,-3
Cc1cc(S(=O)(=O)Nc2c(C)ccc3nsnc23)ccc1F,6,2
O=C1/C(=C/c2ccco2)SC(=S)N1NS(=O)(=O)c1ccccc1,-8,-14
NCC1CCN(S(=O)(=O)c2ccccc2)CC1,5,2
CC(C)n1cc(C(=O)N2CCN(C(=O)C3CC3)CC2)c2nn(-c3ccccc3)c(=O)c-2c1,3,2
CCN(CC)CCNC(=O)C(=O)Nc1cccc([N+](=O)[O-])c1,17,12
COC(=O)CCCCC(=O)Nc1cccc(-c2cccc(-c3ccc(OC)cc3)n2)c1,-2,7
CCC(C(=O)N1CCN(c2ccc(NC(=O)c3ccccc3F)cn2)CC1)c1ccccc1 (stereo unspecified),8,13
O=C(/C=C/c1c(F)cccc1Cl)n1cccn1,-4,-3
COc1cc(/C=C/CN2CCC(C(=O)NC(c3ccc(-c4ccccc4)cc3)c3cnccn3)CC2)ccc1OC(C)=O (stereo unspecified),7,9
Cc1ccc(C2C3C(=O)CC(C)(C)CC3=Nc3nc(-c4cccs4)nn32)o1 (stereo unspecified),-11,-10
CC(C)(CNc1ccc(-c2nc(C3CC3)no2)cn1)N1CCOCC1,3,1
COC(=O)c1ccccc1S(=O)(=O)N1CCC(CO)(CCCc2ccccc2)CC1,11,5
O=c1c2ccccc2sn1-c1cccc(S(=O)(=O)N2CCCCCC2)c1,4,-4
COc1ccc2c(c1)CN(Cc1ccco1)C(=O)CCN2C(=O)C1CCC1,1,3
Cc1nn(C(=O)NC2CCCCC2)c(C)c1Cl,10,2
CCOc1ncccc1CN1CCCC(C(=O)NC2CCC(C(C)(C)C)CC2)C1 (stereo unspecified),3,3
CCc1ccc(-n2c(C)c(C)n3c4c(=O)n(CC(C)=O)c(=O)n(C)c4nc23)cc1,2,0
CC1CN(C(=O)c2ccc(NC(=O)CSc3nccn3C)cc2)CC(C)O1 (stereo unspecified),1,6
O=S(=O)(NCc1ccccc1)NCC1(N2CCCC2)CCCC1,5,3
Cc1c(-c2cccc(NC(=O)Nc3ccccc3)c2)nc2ncccn12,6,8
Cc1ccc2nc(N(CCN3CCOCC3)C(=O)c3ccc(C#N)cc3)sc2c1,26,21
COc1ccc(F)c(CN2CCCC(O)(CN(C)Cc3noc(C)n3)C2=O)c1 (stereo unspecified),-3,-7
CCOC(=O)c1c(NC(=O)Cc2ccccc2)sc(C(=O)Nc2cccc(OC)c2)c1C,-6,-2
CCOC(=O)N1CCN(C(=O)C2CCC(=O)N(Cc3ccccc3OC)C2)CC1 (stereo unspecified),-1,-10
CCOC(=O)C1=C(CSc2nc3sc4c(c3c(=O)n2C)CCC4)NC(=O)NC1C (stereo unspecified),1,-1
Cc1cccc(NC(=O)CC(=O)NC[C@@H]2CCCO2)c1C,1,-3
CCCc1cnc2c(c1SCc1ccccc1F)c(=O)n(C)c(=O)n2C,5,5
O=S(=O)(C=Cc1ccccc1)N1C=Cc2ccccc2C1c1c[nH]c2ccccc12 (stereo unspecified),1,-6
Cc1ccc(-n2nnnc2NC2CCN3CCCC3C2)cc1 (stereo unspecified),8,5
CC(C)c1ccc(NC2CCCN(C(=O)C3CCOCC3)C2)cc1 (stereo unspecified),10,11
Cc1cc(NC(=O)c2ccccc2Br)nc2nc(C(F)(F)F)nn12,-1,-2

# Look-ups from the entries so far.
# `COc1ccc2c(c1)CN(Cc1ccco1)C(=O)CCN2C(=O)C1CCC1` – NPYLR7 ag = 1
# `COC(=O)c1ccccc1S(=O)(=O)N1CCC(CO)(CCCc2ccccc2)CC1` – NPYLR7 ag = 11

# Later entries
SMILES,NPYLR7 ag,NPYLR7 ag max-min
CC(C)(C)c1ccc(C(=O)N2CCC2(C)C(=O)Nc2cccc(C#N)c2)cc1 (stereo unspecified),10,8
CN(Cc1cnccn1)C(=O)c1cccc(C#CC(C)(C)O)c1,-1,-4
CCOC(=O)C(C)(C)Sc1nccc2c(OC)cccc12,-1,-3
COc1cc(C)ccc1OCc1cc(C(=O)N2CCC(Oc3cccnc3)CC2)no1,6,3
O=C(NCCc1cc(Cl)cc(Cl)c1)c1ccc2c(c1)COCO2,-19,-26
COc1ccc(-n2cnc3c2C(=O)c2ccccc2C3=O)cc1,3,0
CCc1ccc(N2C(=O)C3N=NN(c4ccccc4)C3C2=O)cc1 (stereo unspecified),-8,-14
Cc1cc2c(cc1C)NC(c1ccc(Cl)c(Cl)c1)C1C(=O)CC(C)(C)CC1=N2 (stereo unspecified),0,0
CC1(C)CC(=O)c2sc(N)nc2C1,-8,-8
O=C(C(Cc1cnc[nH]1)n1cccc1)N1CC2C[C@@H]3CC1C[C@H](C2)C3 (stereo partly specified),3,2
COc1cccc(N2CCN(c3nncc(-c4ccccc4)n3)CC2)c1,5,3
O=C(OC1C2CCC1C1CN(CCc3ccccc3)CC12)c1ccccc1 (stereo unspecified),6,2
CC(CNC(=O)Nc1ccn(CC(=O)N2CCOCC2)n1)N(C)c1ccccc1 (stereo unspecified),4,1
O=C(Cn1c(CO)cnc1SCCc1ccccc1)NCc1ccc(F)cc1,4,1
c1ccc(NC2CCCCC2)nc1,-8,-16
COc1c(C)cc(C(O)c2ncc(-c3cccc(F)c3)[nH]2)cc1C (stereo unspecified),2,3
O=C1c2ccc(-c3nc4ccccc4c(=O)o3)cc2C(=O)N1c1cccc(C(F)(F)F)c1,-1,-9
CC(O)CN(Cc1ccccc1)C(=O)Nc1ccc(F)c(F)c1 (stereo unspecified),10,8
Cc1ccc(C)c(-c2[nH]ncc2CN2CCN(CC(C)C)C(CCO)C2)c1 (stereo unspecified),-23,-19
Cc1ccc(S(=O)(=O)Nc2cccc(S(=O)(=O)NC3=NCCC3)c2)cc1,10,5
CCOC(=O)c1cccnc1-c1cccc(NC(C)=O)c1,-8,-12
COc1ccc(/C=C2N=C(/C=C/c3cccc(Cl)c3Cl)OC\2=O)cc1,0,-2
CC(C)(C)CC(=O)Nc1ccc(N2CCCC2)c(C(=O)NCCc2ccccc2)c1,-10,-8

# Quoted at random: 2 records from the list.
SMILES,NPYLR7 ag,NPYLR7 ag max-min
CCOC(=O)c1cccnc1-c1cccc(NC(C)=O)c1,-8,-12
O=C(OC1C2CCC1C1CN(CCc3ccccc3)CC12)c1ccccc1 (stereo unspecified),6,2
